UUG fidelity: yeast start codon fidelity modulation. S. cerevisiae UUG-firefly luciferase reporter, luminescence/redox ratio. actives 0.13% (n = 350,000). AID 602363. activity score, % at 18.7 µM;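 active means replicate mean at a twofold rise or more, about +100% in these data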;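 further: firefly luciferase made from a UUG start codon reports start codon fidelity; reporter light over untreated wells divided by growth signal over untreated wells; some hits fall short of that in this replicate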
Rce1 inhib: yeast Ras-converting enzyme inhibition. calls only. AID 2563. actives 0.27% (n = 290,000). Q03530. yeast membranes, quenched prenylated peptide cleavage fluorescence;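 active means fall in fluorescence gain of 50% or more versus controls, with final raw signal at or below 3038400; inconclusive means same 50% fall but final raw signal above 3038400; inactive means fall in fluorescence gain under 50%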;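 further: plate controls were neutral control wells for no effect and wells lacking membranes for full effect; tested at 10 µM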
Target sequence (Q03530 whole entry, looked up): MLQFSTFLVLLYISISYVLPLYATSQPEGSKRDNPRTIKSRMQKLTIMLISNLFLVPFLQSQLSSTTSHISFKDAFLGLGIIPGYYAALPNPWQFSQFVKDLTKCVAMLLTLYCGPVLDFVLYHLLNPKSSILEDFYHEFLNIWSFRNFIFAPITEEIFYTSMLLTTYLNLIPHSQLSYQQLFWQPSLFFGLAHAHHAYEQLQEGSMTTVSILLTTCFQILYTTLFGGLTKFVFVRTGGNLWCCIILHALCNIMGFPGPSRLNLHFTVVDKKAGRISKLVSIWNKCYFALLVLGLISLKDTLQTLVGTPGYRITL
MT1-MMP act inh: inhibitors of human MT1-MMP activation; P50281; HT1080 RFP-PRO-GFP cells, GFP/RFP ratio fluorescence, overnight; percent of plate control window, DMSO zero; GFP/RFP ratio change, % at 20 µM; actives 0.061% (n = 360,000); AID 651647;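 active means GFP/RFP ratio change of at least 30% with cell ATP level not reduced by more than half and red fluorescence within 50% of control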; further: strong numbers were not always called active
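Assay system: HT1080 RFP-PRO-GFP cells | Dosing: 20 µM single dose, 1% DMSO | Incubation: Cells overnight before dosing, compound overnight, 37 °C, 5% CO2 | Evaluation: GFP/RFP fluorescence ratio | Control set: DMSO-only wells and HT1080 RFP-L50D-GFP cell wells as references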
PABP FP inh: blocks human PABP binding to poly(A) RNA. fluorescence polarization. actives 1% (n = 290,000). AID 2014. inhibition, % at 35 µM. P11940;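 active means 50% or more with normal probe brightness, or confirmed in later tests; inconclusive means above 50% with abnormal brightness, or retests that disagree; inactive means below 50% or failed in later tests; about a fifth of its hits are not listed in these tables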;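 further: calls also rest on retests at 20 µM and on dose response follow-up; controls were probe without protein and protein plus probe with vehicle; some compounds called inactive have numbers as strong as hits; many hits fall short of the cut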
Target sequence (P11940 whole entry, looked up): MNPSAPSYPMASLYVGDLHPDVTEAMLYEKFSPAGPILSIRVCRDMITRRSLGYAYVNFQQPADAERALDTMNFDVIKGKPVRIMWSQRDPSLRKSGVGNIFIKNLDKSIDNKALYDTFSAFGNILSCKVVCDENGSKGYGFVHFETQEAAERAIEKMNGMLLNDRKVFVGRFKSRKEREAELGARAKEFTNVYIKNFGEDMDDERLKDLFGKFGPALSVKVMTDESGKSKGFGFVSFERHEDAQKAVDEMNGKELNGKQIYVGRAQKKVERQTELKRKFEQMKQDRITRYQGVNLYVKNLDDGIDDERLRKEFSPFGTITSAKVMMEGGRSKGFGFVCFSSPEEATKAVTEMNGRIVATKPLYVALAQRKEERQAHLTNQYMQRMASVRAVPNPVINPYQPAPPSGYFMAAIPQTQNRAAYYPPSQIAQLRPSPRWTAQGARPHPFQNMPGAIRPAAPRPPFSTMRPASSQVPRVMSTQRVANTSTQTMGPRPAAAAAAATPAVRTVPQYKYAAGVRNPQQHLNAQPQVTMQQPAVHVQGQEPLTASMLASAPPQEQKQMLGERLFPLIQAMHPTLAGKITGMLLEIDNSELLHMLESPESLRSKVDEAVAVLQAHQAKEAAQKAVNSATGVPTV
eIF4H inh: inhibitors of RNA binding by human eIF4H; eIF4H fluorescence polarization binding assay; inhibition, % at 35 µM; actives 0.94% (n = 290,000); AID 2012;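 active means 50% or more with normal probe brightness, or confirmed in later tests; inconclusive means above 50% with abnormal brightness, or retests that disagree; inactive means below 50% or failed in later tests; about a fifth of its hits are not listed in these tables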;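 further: calls also rest on retests at 20 µM and on dose response follow-up; 0% = protein and probe with vehicle and 100% = probe without protein; strong numbers were not always called active; many hits fall short of the cut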
HIV Env fusion: inhibitors of HIV Env-mediated cell fusion | HeLa-JRFL Env/CEM21 cell fusion, luciferase | actives 1.1% (n = 360,000) | AID 651610 | inhibition, % at 12.3 µM;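 active means mean replicate inhibition score of at least 50 and every replicate individually at or above 50; inconclusive means only one of the two criteria met; inactive means mean below 50 and not all replicates reaching 50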;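 further: 0% = plate neutral controls and 100% = maraviroc near 300 nM; one replicate is shown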
CSC inhib: cancer stem cell inhibition; cancer stem cell-like cells viability, luminescence; inhibition, % at 7.5 µM; actives 1.1% (n = 300,000); AID 2717;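 active means mean at 75% or more and at least half the replicates too; inconclusive means mean and replicates disagree; tested in HMLE shEcad cells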;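 further: 0% = median of negative and 100% = median of positive control wells; the first replicate is given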
eIF4H inh retest: recorded beside eIF4H inh, whose call it bears; inhibition, %; compound at 20 µM; confirmation average;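 mean of two retest wells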
PABP FP inh retest: recorded beside PABP FP inh, whose call it bears; inhibition, %; compound at 20 µM; confirmation repeats;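 mean of two retest wells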
MT1-MMP act inh RFP: recorded beside MT1-MMP act inh, whose call it bears; RFP signal change, %; measured here: RFP expression control read;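 0 = vehicle wells; hits needed this value within 50% of zero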
* = called active by the depositor; i = inactive; ? = inconclusive; . = no result given; & = joins results of further samples. A portion of the library; count on the stated rates, not on these rows.

SMILES	UUG fidelity	Rce1 inhib	MT1-MMP act inh	MT1-MMP act inh RFP	PABP FP inh	eIF4H inh	HIV Env fusion	CSC inhib	others
O=C1c2ccccc2C(O)N1c1cccnc1 (stereo not given)	-12	i	1	0	2	6	4	5
COc1ccccc1CC(=O)Nc1cc(C)ccn1	-21	i	0	2	-1	7	-44	3
CCN(CC)c1ccc(N2C(=O)c3ccccc3C2=O)cc1	12	i	-3	0	-5	-4	-33	-2
C/C(CCc1ccccc1)=N\NC(=O)c1ccccc1[N+](=O)[O-]	.	i	0	6	12	2	13	1
CCN1CCN(CCNC(=O)c2ccc(CS(=O)c3ccc(Br)cc3)o2)CC1 (stereo not given)	-12	i	-1	4	5	1	3	8
Cc1ccc(NC(=O)CNC(=O)C2CCCCC2)nc1	10	i	0	0	.	.	.	-1
CCNc1nc(NCC)n2c(SC(C)C(=O)c3ccc(C)cc3)nnc2n1 (stereo not given)	-18	i	2	-4	-4	0	13	-10
CC1Oc2ccccc2N(CC(=O)N2CCCCC2)C1=O (stereo not given)	-12	i	0	-1	-10	4	12	-10
COc1ccc(C)cc1NC(=O)CSc1nnc(-c2ccc(C)cc2)o1	-8	i	6	-7	6	-1	-10	7
Cc1ccc(S(=O)(=O)N2CCCC(C(=O)N3CCN(C)CC3)C2)cc1 (stereo not given)	-2	i	-2	-3	6	26	4	-1
COc1ccc(/C=C/C(=O)O)cc1S(=O)(=O)N1CCCC1	0	i	2	5	29	-2	-8	-1
Cn1c(NC(=O)c2ccc(Cl)cc2Cl)cc(=O)n(C)c1=O	1	i	1	-1	4	-13	-30	2
CCOc1ccc(NC(=O)CSC2=NCCN2)cc1	.	i	9	7	-7	-6	-13	1
CC(=O)Nc1cc(-c2cccc(CO)c2)cn2c(-c3ccc(F)cc3)cnc12	-8	.	-1	0	.	.	-7	.
O=C1OC(Nc2ccccn2)c2ccccc21 (stereo not given)	-4	i	0	3	-8	-7	-7	-19
Cc1ccccc1-n1cc(CNC(=O)CC2C(=O)NCCN2C/C=C/c2ccccc2)cn1 (stereo not given)	6	i	-5	-1	-7	-6	58*	0
CN(c1ccccc1)S(=O)(=O)c1ccc2[nH]c(=O)oc2c1	-7	i	0	2	5	12	1	-7
CC1CCN(CCOc2ccc(C(=O)c3ccccc3)cc2)CC1	-16	i	-3	-2	-1	13	17	-10
Nc1ccc(O)c(-c2nc3ccccc3s2)c1	-11	i	-1	7	?	?	-67	10
Cc1cc(=O)n2nc(N3CCCC3C(=O)Nc3cccc(F)c3)sc2n1 (stereo not given)	-10	i	6	9	-8	-5	-24	-5
COc1cc(/C=C2\SC(=S)N(Nc3ncc(C(F)(F)F)cc3Cl)C2=O)ccc1O	-15	i	-26	96	11	24	-87	51
Nc1c2c(nc3ccccc13)CSCC2	-9	i	0	3	.	.	-10	-5
O=C(CNC(=O)c1ccc(OC(F)F)cc1)Nc1cccc(S(=O)(=O)N2CCCC2)c1	-6	i	3	1	.	.	14	2
O=c1oc(C2(O)CCCCC2)cc2ccc(Br)cc12	-7	.	2	-2	.	.	-18	-3
CC(C)N(C(=O)COC(=O)c1ccccc1C(=O)c1ccc(Cl)c([N+](=O)[O-])c1)C(C)C	.	i	-3	-4	-8	-2	7	-1
COc1ccc(N2CCN(C(=O)COC(=O)c3cccc(S(=O)(=O)Nc4cccc(C)c4)c3)CC2)cc1	.	i	-13	-23	.	.	21	-19
COC(=O)c1cccc(N(C(=O)c2cnccn2)C(C(=O)NCc2ccccc2)c2ccco2)c1 (stereo not given)	.	i	-1	4	3	-3	.	-9
C=CCCC(=O)Nc1ccc(COC(=O)N2CCOCC2)cc1	-8	i	2	4	-12	-1	-4	-5
COc1ccc(C(=O)N/C(=C\c2cn(C)c3ccccc23)C(=O)NCCN2CCOCC2)cc1OC	-13	i	-10	1	0	-8	-14	-8
COc1ccc(S(=O)(=O)N(C)C[C@@H]2Oc3ccc(NC(=O)Nc4c(C)noc4C)cc3C(=O)N([C@H](C)CO)C[C@@H]2C)cc1	3&-14	.	-4	0	.	.	-131	.
COCC(=O)Nc1cc(Cl)ccc1C(F)(F)F	.	i	.	.	-5	-3	.	0
c1ccc2c(CSc3nnc(-c4ccncc4)o3)cccc2c1	-19	i	1	-8	-1	-3	-41	35
CCOC(=O)N1CCN(c2nc(-c3ccc(OC)cc3)no2)CC1	-7	i	-1	-11	-6	-4	18	-19
O=C(CS(=O)(=O)c1ccc(F)cc1)NCCS(=O)(=O)c1ccccc1	-19	i	-9	-2	-14	-10	13	-21
COc1ccc(Nc2nc3ccc(C)cc3n3cnnc23)cc1Cl	-8	i	-1	0	-6	-9	-8	14
COc1ccc2[nH]c3c(c2c1)CCN1C(=O)C(CC(=O)NC(C)(C)C)C[C@H](C(=O)N2CCCCC2)[C@@]31CCc1ccccc1 (stereo not given in full)	-3	.	-38	-33	.	.	1	.
O=C(c1cccc(Cl)c1)N1CCN(Cc2ccccc2)CC1	-14	i	31*	-10*	-3	-6	8	-15
O=C(Nc1cccc(NC(=O)c2cccs2)c1)c1ccc2c(c1)OCO2	-19	i	1	4	-2	3	11	10
Cc1ccc2nc(NC(=O)C3CCN(S(=O)(=O)c4ccc5c(c4)oc(=O)n5C)CC3)sc2c1	-37	i	1	-21	-2	-13	45	19
CCc1ccc(-n2c(C)nc3cc(C(=O)NCc4cccnc4)ccc32)cc1	-16	i	4	-2	32	5	20	-2
Cc1ccc(S(=O)(=O)NCc2ccc(C(=O)N(C)CCC#N)cc2)cc1	-11	i	-3	8	0	-6	.	-12
O=C(NCCc1ccc(Cl)cc1Cl)c1ccc2nc[nH]c2c1	-26	i	0	-2	8	-8	-10	6
CC(=O)Nc1ccc(OC(=O)c2ccc(Br)c([N+](=O)[O-])c2)cc1	.	i	1	-6	-6	0	24	-7
COc1ccccc1-n1c(C)nnc1SCC(=O)Nc1cccc(C(C)=O)c1	-25	.	-6	-2	-2	30	-34	-11
O=C(Nc1ccc2c(c1)OCO2)c1ccc2sc([C@@H]3O[C@H](CO)[C@H](O)[C@H](O)[C@H]3O)nc2c1	6	.	1	1	.	.	-23	.
COCCN1C[C@@H](CO)O[C@@H](n2cnc3c(NCCO)ncnc32)C1	-18	.	5	6	.	.	-7	.
COc1cc(OC)c2c(-c3cccc(-c4ccc(F)c(Cl)c4)c3)cc(=O)oc2c1	-8	.	-10	-14	.	.	-7	.
Cc1cccc(C(=O)Nc2ccc(O)cc2C(=O)O)c1	-11	i	-1	4	13	4	14	3
O=C(N1CCOCC1)N1CCN(S(=O)(=O)c2ccccc2)C1	.	i	3	2	4	0	-9	-3
O=C(OCc1nnc(-c2ccccc2)o1)C1=COCCO1	-20	.	4	7	-4	-3	.	6
CN1C[C@@H]2C(c3ccc(Cl)nc3)C3(c4ccccc4)CC2(C3)[C@H]1c1ccccc1 (stereo not given in full)	-6	i	-3	-7	0	3	-31	-2
Cc1nc2cc(OCc3cc(C(=O)NC(C)c4cnn(C)c4)no3)ccc2s1 (stereo not given)	-16	i	0	-3	-6	-14	-5	-29
O=C(NCc1cccc(Cl)c1)c1cnccn1	5	i	-10	0	54	34*	-21	.	eIF4H inh retest=94*;PABP FP inh retest=50
CC(=O)N1N=C(c2cccc([N+](=O)[O-])c2)OC1c1ccccc1Cl (stereo not given)	-11	i	-2	1	-10	-3	4	2
CCn1ccnc1CN(C)Cc1cn[nH]c1-c1ccc(F)cc1F	-7	i	-14	-8	3	0	19	8
COc1cccc(CNC(=O)C2CCCN(S(=O)(=O)c3c(C)[nH]c(=O)[nH]c3=O)C2)c1 (stereo not given)	-7	i	-2	1	-2	1	.	-3
CN(C)c1cc[n+](Cc2c(Cl)cccc2Cl)cc1	-12	i	-2	-15	-2	9	58*	7
Cc1cccc(-n2c(N)cc(=O)nc2SCC(=O)Nc2nnc(C)s2)c1	-4	i	4	-4	-5	-1	.	.
Cc1cc(C)cc(NC(=S)NC(=O)CCN2C(=O)c3ccccc3C2=O)c1	-7	i	-6	-6	-7	0	-16	-3
Cc1ccc(-n2c3nc(=O)[nH]c(=O)c-3cc3c(C)nn(-c4ccccc4)c32)c(C)c1	.	i	2	1	4	7	-13	-8

13 compounds out of the list, sorted by molar mass, ascending.
SMILES	UUG fidelity	Rce1 inhib	MT1-MMP act inh	MT1-MMP act inh RFP	PABP FP inh	eIF4H inh	HIV Env fusion	CSC inhib	others
Cc1cccc(C(=O)Nc2ccc(O)cc2C(=O)O)c1	-11	i	-1	4	13	4	14	3
CN(C)c1cc[n+](Cc2c(Cl)cccc2Cl)cc1	-12	i	-2	-15	-2	9	58*	7
O=C(OCc1nnc(-c2ccccc2)o1)C1=COCCO1	-20	.	4	7	-4	-3	.	6
O=C(N1CCOCC1)N1CCN(S(=O)(=O)c2ccccc2)C1	.	i	3	2	4	0	-9	-3
CC(=O)N1N=C(c2cccc([N+](=O)[O-])c2)OC1c1ccccc1Cl (stereo not given)	-11	i	-2	1	-10	-3	4	2
COCCN1C[C@@H](CO)O[C@@H](n2cnc3c(NCCO)ncnc32)C1	-18	.	5	6	.	.	-7	.
Cc1ccc(S(=O)(=O)NCc2ccc(C(=O)N(C)CCC#N)cc2)cc1	-11	i	-3	8	0	-6	.	-12
CC(=O)Nc1ccc(OC(=O)c2ccc(Br)c([N+](=O)[O-])c2)cc1	.	i	1	-6	-6	0	24	-7
Cc1cc(C)cc(NC(=S)NC(=O)CCN2C(=O)c3ccccc3C2=O)c1	-7	i	-6	-6	-7	0	-16	-3
COc1ccccc1-n1c(C)nnc1SCC(=O)Nc1cccc(C(C)=O)c1	-25	.	-6	-2	-2	30	-34	-11
Cc1nc2cc(OCc3cc(C(=O)NC(C)c4cnn(C)c4)no3)ccc2s1 (stereo not given)	-16	i	0	-3	-6	-14	-5	-29
CN1C[C@@H]2C(c3ccc(Cl)nc3)C3(c4ccccc4)CC2(C3)[C@H]1c1ccccc1 (stereo not given in full)	-6	i	-3	-7	0	3	-31	-2
COc1cccc(CNC(=O)C2CCCN(S(=O)(=O)c3c(C)[nH]c(=O)[nH]c3=O)C2)c1 (stereo not given)	-7	i	-2	1	-2	1	.	-3

Other results:
SMILES	UUG fidelity	Rce1 inhib	MT1-MMP act inh	MT1-MMP act inh RFP	PABP FP inh	eIF4H inh	HIV Env fusion	CSC inhib	others
CCc1nc(SCC(=O)NCC2CCCO2)c2c(=O)n(C)c(=O)n(C)c2n1 (stereo not given)	-16	i	-5	-2	6	35	-9	11
CCOC(=O)/C(C#N)=C/c1cn(CCC(=O)O)nc1-c1cccc(Br)c1	.	i	3	3	19	1	17	5
CC(=O)Nc1ccc(-c2csc(NCc3ccco3)n2)cc1	.	i	-4	-4	-13	70	.	2	eIF4H inh retest=-8;PABP FP inh retest=0
Cc1ccc(-c2nc(CS(=O)(=O)CC(=O)NC3CC3)c(C)o2)cc1	-7	i	1	3	0	0	8	-2
COc1ccc(CC(=O)Nc2cc(Cl)ccc2O)cc1	-20	i	13	-2	-1	-2	.	26
CC(=O)N1CCN(C(=O)c2ccc(S(=O)(=O)Nc3ccccc3C)cc2)CC1	.	i	-4	0	.	.	4	-8
Nc1nc(Cl)cc(Sc2ccc3ccccc3c2)n1	-11	i	-25	-24	-8	-2	.	39
